Screening data as filed in PubChem.
Pol III holo inh: qHTS Assay for Inhibitors of DNA Polymerase III Holoenzyme System; reconstituted DNA polymerase III holoenzyme replication, biochemical; Potency, µM (top dose mostly 57.1 µM), for inactives: top-dose activity change, negative = inhibition; 0.25% of 71,000 active; note: potency is the fitted concentration of half-maximal effect; % is set by controls: 0 for no effect and ±100 for the full control effect
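Reconstituted *E. coli* holoenzyme (0.35 nM Pol III, 1 nM beta, 154 nM SSB, 2 nM primase) was preincubated with compound for 15 min at RT. Synthesis on 1.4 nM ssM13Gori ran 35 min, then was stopped with PicoGreen/EDTA and read as dsDNA fluorescence.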
BRCT inh green: qHTS Assay for Inhibitors of BRCT-Phosphoprotein Interaction (Green Fluorophore) | Breast cancer type 1 susceptibility protein (Homo sapiens), P38398 | BRCA1 BRCT-phosphopeptide binding, green fluorescence polarization | Potency, µM (top dose mostly 76.9 µM), for the others: at the highest dose activity change, negative = inhibition, hits mostly inhibitors | 0.05% of 75,000 active;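 note: potency is the fitted concentration of half-maximal effect; plate controls were peptide without protein for full effect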
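Compounds were incubated for 12 min at room temperature with a complex of 100 nM fluorescein-tagged pBACH1 decapeptide and 250 nM His-tagged BRCT protein. Buffer was phosphate pH 7.3 with EDTA, DTT and Tween 20. Disruption of binding lowers the polarization signal.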
HEK293 cAMP cs: qHTS Assay for Agonists of the Thyroid Stimulating Hormone Receptor: Activators of Intracellular cAMP Concentrations in Parental HEK 293. AID 938, 2007. Potency, µM (series often up to 57.1 µM), inactives show at the highest dose activation, actives largely listed as activators. 2.5% of 73,000 active. parental HEK293 CNG cAMP sensor, membrane potential fluorescence; note: potency is the fitted concentration of half-maximal effect; % of control where 0% means no effect; nearly all actives have a fitted effect of over 55% in size
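Counterscreen for endogenous-receptor signalling: CNG-channel HEK 293 cells report cAMP rise by membrane depolarization. After 60 min dye equilibration with 100 uM RO 20-1724, compounds incubated 30 min before bottom-read fluorescence at 590 nm.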
Caspase-7 inhib: qHTS Assay for Allosteric/Competitive Inhibitors of Caspase-7. P55210. recombinant caspase-7, Ac-DEVD-AFC fluorescence rate. Potency, µM (highest dose often 57.5 µM), inactives show at the highest dose activity change, negative = inhibition, actives largely listed as inhibitors. 0.02% of 75,000 active. AID 889, 2007; active = well fitted inhibition curve with a large enough effect in the main read-out, with a control signal flat, not every such curve was filed as active; inconclusive = small, poorly fitted or top-dose-only effect, or a change in a side signal; note: potency is the fitted concentration of half-maximal effect; % of control where 0% means no effect
Rhodamine autofl: qHTS Assay for Spectroscopic Profiling in Rhodamine Spectral Region; Rhodamine-region fluorescence, 547/598 nm, Tris buffer; stronger effect = higher value; 0.05% of 59,000 active; AID 594, 2007; max dye-equivalent concentration, M; in the data active = max dye-equivalent concentration above about 11 nM; inconclusive = between about 1.1 nM and that limit
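Compounds in 100 mM Tris buffer, pH 8.0, were incubated 15 min at room temperature, then read at 547 nm excitation and 598 nm emission. Fluorescence was normalized against a per-plate six-point rhodamine standard curve as dye-equivalent concentration.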
Tau fil binding: qHTS Assay for Tau Filament Binding; AID 596, 2007; recombinant tau filaments, thioflavin S fluorescence, 15 h; filaments grown with octadecylsulfate alongside compound; Potency, µM (doses to about 57.1 µM), for the others: top-dose activity change, negative = inhibition; 2% of 71,000 active; Microtubule-associated protein tau (Homo sapiens), P10636;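 note: potency is the fitted concentration of half-maximal effect; % is set by controls: 0 for no effect and ±100 for the full control effect; actives lower thioflavin S fluorescence by blocking filaments or displacing dye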
Target sequence (P10636 whole entry, looked up): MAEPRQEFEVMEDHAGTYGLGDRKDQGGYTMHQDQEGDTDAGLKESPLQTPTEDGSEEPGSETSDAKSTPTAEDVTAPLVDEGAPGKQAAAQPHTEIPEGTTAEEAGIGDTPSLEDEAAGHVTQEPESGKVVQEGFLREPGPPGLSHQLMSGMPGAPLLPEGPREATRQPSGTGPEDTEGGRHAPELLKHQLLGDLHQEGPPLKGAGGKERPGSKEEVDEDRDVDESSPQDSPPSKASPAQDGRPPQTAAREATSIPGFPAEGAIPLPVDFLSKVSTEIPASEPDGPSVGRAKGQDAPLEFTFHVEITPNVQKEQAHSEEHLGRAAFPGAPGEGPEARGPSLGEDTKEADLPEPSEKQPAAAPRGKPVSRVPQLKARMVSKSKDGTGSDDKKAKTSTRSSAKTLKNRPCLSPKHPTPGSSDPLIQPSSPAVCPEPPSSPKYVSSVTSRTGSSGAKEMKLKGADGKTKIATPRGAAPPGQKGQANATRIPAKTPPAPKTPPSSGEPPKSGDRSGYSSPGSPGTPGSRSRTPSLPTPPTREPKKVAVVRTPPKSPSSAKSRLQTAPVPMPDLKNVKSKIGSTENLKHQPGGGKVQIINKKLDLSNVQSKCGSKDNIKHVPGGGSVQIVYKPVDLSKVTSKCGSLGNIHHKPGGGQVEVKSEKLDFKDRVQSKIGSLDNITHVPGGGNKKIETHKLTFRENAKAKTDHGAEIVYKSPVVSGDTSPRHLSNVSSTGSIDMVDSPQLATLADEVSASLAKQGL
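His-tagged recombinant human tau (exons 2, 3 and 10 included), 1 uM, was induced to fibrillize by 30 uM sodium octadecylsulfate with compound present. After 15 h at 37 C, thioflavine S fluorescence (ex 450, em 510 nm) was read.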
USP2a inh: qHTS Assay for Inhibitors of Ubiquitin-specific Protease USP2a. Ubiquitin carboxyl-terminal hydrolase 2 (Homo sapiens), O75604. 0.1% of 60,000 active. Potency, µM (top dose mostly 38.3 µM), for the others: top-dose activity change, negative = inhibition, actives largely listed as inhibitors. USP2a enzymatic assay, qHTS inhibition. AID 927, 2007;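 note: potency is the fitted concentration of half-maximal effect; nearly all actives have a fitted effect of over 60% in size; plate controls were DMSO for no effect and NEM full inhibition control for full effect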
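Inhibition is measured in a cell-free coupled assay with 20 nM USP2 core, 20 nM Ub-PLA2 and 20 uM NBD C6-HPC, 2.5 h incubation. Activity normalized to NEM control.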
Casp1 inh: qHTS Assay for Allosteric/Competitive Inhibitors of Caspase-1. Caspase-1 enzyme, Ac-WEHD-AFC fluorogenic rate. Potency, µM (highest dose often 57.5 µM), for inactives: at the highest dose activity change, negative = inhibition, usual class: inhibitors. 0.03% of 75,000 active;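 note: potency is the fitted concentration of half-maximal effect; plate controls were vehicle for no effect and no substrate for full effect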
BRCT PPI red: qHTS Assay for Inhibitors of BRCT-Phosphoprotein Interaction (Red Fluorophore); Breast cancer type 1 susceptibility protein (Homo sapiens), P38398; BRCT-phosphopeptide binding, red fluorescence polarization; Potency, µM (top dose mostly 76.9 µM), inactives show at the highest dose activity change, negative = inhibition, actives largely listed as inhibitors; 0.03% of 75,000 active; AID 892, 2007; note: % is set by controls: 0 for no effect and ±100 for the full control effect
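Rhodamine-labelled pBACH1 10-mer (100 nM) bound to BRCT domain (100 nM) at pH 7.3; compounds incubated 12 min room temperature, polarization read. Free peptide defines full inhibition; unlabelled decapeptide titrated as control.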
15-hLO inh: qHTS Assay for Inhibitors of 15-hLO (15-human lipoxygenase); Polyunsaturated fatty acid lipoxygenase ALOX15 (Homo sapiens), P16050; purified 15hLO-1, xylenol orange hydroperoxide absorbance; Potency, µM (series often up to 57.1 µM), inactives show at the top dose activity change, negative = inhibition, hits mostly inhibitors; 1.4% of 74,000 active; note: potency is the fitted concentration of half-maximal effect; % is set by controls: 0 for no effect and ±100 for the full control effect; nearly all actives have a fitted effect of over 55% in size
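Compounds were preincubated 15 min at room temperature with 40 nM purified human enzyme (25 mM Hepes pH 7.5, 0.01% Triton X-100); 50 uM arachidonic acid reacted 6 min. Fe-xylenol orange detection, 30 min, absorbance ratio 573/405 nm.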
An asterisk follows results filed as active; i = inactive; ? = inconclusive; · = no result given; [ ] = dose if it differs, or a comment. Unless noted, calls come from the whole dose curve; as a rule, active = well fitted curve in the direction sought with a large enough effect; inconclusive = small, poorly fitted or top-dose-only effect, or another doubt; inactive = no such curve, though single readings can be large; an effect the other way counts as inactive or inconclusive. Only part of the results is shown (hit frequency here may not be typical).

Short keys: A = Pol III holo inh; B = BRCT inh green; C = HEK293 cAMP cs; D = Caspase-7 inhib; E = Rhodamine autofl; F = Tau fil binding; G = USP2a inh; H = Casp1 inh; I = BRCT PPI red; J = 15-hLO inh
1) COc1ccc(O)c(/C=c2/sc3nc4cc(C)c(C)cc4n3c2=O)c1
  A = -8% | B = 4.3% | C = 32µM* | D = -17% | E = i | F = 189% | G = 45%[activator] | H = ? | I = -2.2% | J = ?
2) COc1ccc(OC)c(-n2c(SCC(=O)N3CCc4ccccc43)nc3c(c2=O)SCC3)c1
  A = -2% | B = -2.9% | C = 3% | D = -2% | E = · | F = 212% | G = · | H = -5% | I = 0.1% | J = -13%
3) COc1ccc(CNc2nc3c(c(=O)n(Cc4ccc(Cl)cc4)c(=O)n3C)n2C)cc1
  A = 3% | B = 0.1% | C = -30% | D = -3% | E = i | F = -21% | G = 7% | H = -2% | I = -0.1% | J = -8%
4) Cc1c2c(nc3c(C(=O)NC4CCCC4)cnn13)CCCC2
  A = 3% | B = -3.4% | C = ? | D = -1% | E = i | F = 6% | G = 1% | H = 3% | I = 0.9% | J = 5%
5) Cc1n[nH]c(=O)nc1N1CCN(c2ccccc2)CC1
  A = -7% | B = -2.0% | C = 2% | D = -1% | E = i | F = -7% | G = 1% | H = 0% | I = -0.1% | J = 4%
6) COc1ccc(/C(O)=C2/C(=O)C(=O)N(CCN(C)C)C2c2ccc(OC)c(OC)c2)c(C)c1 (stereo unspecified)
  A = -11% | B = -0.9% | C = 5% | D = -2% | E = i | F = -20% | G = 0% | H = -1% | I = -0.2% | J = 7%
7) O=C(Nc1cccnc1)c1cc(-c2ccc3c(c2)OCO3)on1
  A = -6% | B = -0.1% | C = 5% | D = 0% | E = i | F = 3% | G = 12% | H = -2% | I = 2.3% | J = 4%
8) CC(C)Sc1oc(-c2ccco2)nc1S(=O)(=O)c1ccc(F)cc1
  A = -6% | B = 7.5% | C = 15% | D = -13% | E = i | F = -26% | G = 25% | H = -3% | I = -1.5% | J = 25µM*
9) C/C(=C\C(=O)c1ccccc1)Nc1cccc(O)c1
  A = -3%[11.4 µM] | B = 0.6% | C = 5%[11.4 µM] | D = -5% | E = · | F = 9%[11.4 µM] | G = 19%[7.66 µM] | H = -11% | I = 0.2% | J = -21%[11.4 µM]
10) O=C(Nc1ccc2nn(-c3ccccc3)nc2c1)c1ccc2c(c1)OCCO2
  A = -2% | B = -0.4% | C = ? | D = -11% | E = · | F = 269% | G = 1% | H = -13% | I = 0.7% | J = -8%
11) O=C(Nc1cccc(-c2nc3ncccc3o2)c1)c1cc2ccccc2o1
  A = -4% | B = 1.0% | C = ? | D = 2% | E = · | F = i | G = 32%[activator] | H = 2% | I = -0.4% | J = -17%
12) COc1nc(NCCc2ccc(OC)c(OC)c2)nc(OC)n1
  A = -5% | B = 0.0% | C = 0% | D = -2% | E = i | F = 8% | G = 2% | H = 0% | I = -0.6% | J = 9%
13) c1cncc(-c2nnc(-c3cccnc3)nn2)c1
  A = -4% | B = -1.0% | C = 11% | D = 2% | E = i | F = -1% | G = -1% | H = -1% | I = -0.4% | J = ?
14) CC1Cc2nc(SCC(=O)Nc3ccccc3F)n(C)c(=O)c2S1 (stereo unspecified)
  A = -4% | B = -0.1% | C = 21% | D = 0% | E = i | F = -16% | G = 15% | H = 1% | I = 0.7% | J = -10%
15) N#Cc1c(N)sc2c1CCN(C(=O)OCc1ccccc1)C2
  A = 0% | B = 10% | C = -20% | D = -14% | E = i | F = 16µM* | G = 20% | H = -6% | I = -3.9% | J = 16µM*
16) CC1=C(C(=O)Nc2ccccc2)C(c2cccnc2)n2nc(-c3cccnc3)nc2N1 (stereo unspecified)
  A = -9% | B = -0.9% | C = 0% | D = 6% | E = i | F = 13% | G = 7% | H = 1% | I = -0.8% | J = 7%
17) Cc1ccc2[nH]c(C(=O)O)c(-c3ccccc3)c2c1
  A = -1% | B = -1.8% | C = -23% | D = -1% | E = i | F = 0% | G = 5% | H = 0% | I = -0.3% | J = 9%
18) COc1ccc(CNC(=O)c2noc3c2CCCCC3)cc1
  A = 3% | B = -3.4% | C = 24% | D = 0% | E = i | F = -4% | G = -2% | H = -2% | I = -3.1% | J = 1%

Entries listed so far that contain an aryl methoxy group:
Short keys: A = Pol III holo inh; B = BRCT inh green; C = HEK293 cAMP cs; D = Caspase-7 inhib; E = Rhodamine autofl; F = Tau fil binding; G = USP2a inh; H = Casp1 inh; I = BRCT PPI red; J = 15-hLO inh
1) COc1ccc(O)c(/C=c2/sc3nc4cc(C)c(C)cc4n3c2=O)c1
  A = -8% | B = 4.3% | C = 32µM* | D = -17% | E = i | F = 189% | G = 45%[activator] | H = ? | I = -2.2% | J = ?
2) COc1ccc(OC)c(-n2c(SCC(=O)N3CCc4ccccc43)nc3c(c2=O)SCC3)c1
  A = -2% | B = -2.9% | C = 3% | D = -2% | E = · | F = 212% | G = · | H = -5% | I = 0.1% | J = -13%
3) COc1ccc(CNc2nc3c(c(=O)n(Cc4ccc(Cl)cc4)c(=O)n3C)n2C)cc1
  A = 3% | B = 0.1% | C = -30% | D = -3% | E = i | F = -21% | G = 7% | H = -2% | I = -0.1% | J = -8%
6) COc1ccc(/C(O)=C2/C(=O)C(=O)N(CCN(C)C)C2c2ccc(OC)c(OC)c2)c(C)c1 (stereo unspecified)
  A = -11% | B = -0.9% | C = 5% | D = -2% | E = i | F = -20% | G = 0% | H = -1% | I = -0.2% | J = 7%
12) COc1nc(NCCc2ccc(OC)c(OC)c2)nc(OC)n1
  A = -5% | B = 0.0% | C = 0% | D = -2% | E = i | F = 8% | G = 2% | H = 0% | I = -0.6% | J = 9%
18) COc1ccc(CNC(=O)c2noc3c2CCCCC3)cc1
  A = 3% | B = -3.4% | C = 24% | D = 0% | E = i | F = -4% | G = -2% | H = -2% | I = -3.1% | J = 1%
